TRPML1 agonist: qHTS for Agonists of the Human Mucolipin Transient Receptor Potential 1 (TRPML1); 0.12% of 410,000 active; activation, % (test concentration not listed); TRPML1-expressing cells, Ca2+ dye fluorescence, FDSS; host cell line not named in the record; reference of the full effect not given here; AID 624414, 2012; Mucolipin-1 (Homo sapiens), Q9GZU1; in the data active = activation above about 50%; inconclusive = about 30% to 50%; inactive = below about 30%; note: 0% is about no effect; the text of the record puts the active cut at 80%
Target sequence (Q9GZU1 whole entry, looked up): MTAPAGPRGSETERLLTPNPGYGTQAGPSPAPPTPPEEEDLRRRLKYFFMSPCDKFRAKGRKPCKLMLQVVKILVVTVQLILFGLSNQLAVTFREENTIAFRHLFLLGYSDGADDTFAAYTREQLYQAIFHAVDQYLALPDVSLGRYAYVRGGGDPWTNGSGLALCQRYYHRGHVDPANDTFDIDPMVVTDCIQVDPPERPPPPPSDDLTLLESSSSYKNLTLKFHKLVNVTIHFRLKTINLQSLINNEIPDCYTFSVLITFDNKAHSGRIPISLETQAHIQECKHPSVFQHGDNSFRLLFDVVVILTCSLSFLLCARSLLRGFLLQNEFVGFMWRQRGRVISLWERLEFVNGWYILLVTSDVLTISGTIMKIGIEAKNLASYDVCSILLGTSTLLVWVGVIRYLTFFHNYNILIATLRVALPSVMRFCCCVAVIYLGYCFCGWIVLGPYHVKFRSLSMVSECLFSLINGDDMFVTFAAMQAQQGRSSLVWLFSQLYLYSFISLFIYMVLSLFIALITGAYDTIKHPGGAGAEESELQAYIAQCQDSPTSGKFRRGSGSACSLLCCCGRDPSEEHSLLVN
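Tetracycline-induced TRPML1-DL cells are seeded and incubated overnight before loading with a no-wash Ca2+ dye and quencher. Agonist activity is taken from the 110 s fluorescence read following compound pin-transfer on an FDSS, before EC80 54-4 challenge.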
gsp antagonist: qHTS for Antagonists of gsp, the Etiologic Mutation Responsible for Fibrous Dysplasia/McCune-Albright Syndrome: qHTS | gsp-mutant cells, cAMP HTRF, 30 min; control for the full effect not named in the record | Potency, µM (highest dose often 76.9 µM), for inactives: at the top dose activity change, negative = inhibition, usual class: inhibitors | 0.4% of 340,000 active | AID 624288, 2012; active = falling curve of any shape with a large fitted effect; inconclusive = falling curve, mostly with a smaller effect; inactive = flat or rising curve; cell line not stated here;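 note: intracellular cAMP measured with PDE inhibitor Ro 20-1724 present during compound exposure; potency is the fitted concentration of half-maximal effect; % is set by controls: 0 for no effect and ±100 for the full control effect; nearly all actives have a fitted effect of over 65% in size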
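Measurement of cellular cAMP by homogeneous time-resolved fluorescence following a 30 min compound exposure at 37C. The PDE inhibitor […] was present throughout; the assay buffer was DPBS with 0.05% BSA and 0.005% Tween 20.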
ClpP mod: qHTS Assay for Activators of ClpP; 1.9% of 340,000 active; ATP-dependent Clp protease proteolytic subunit (Bacillus subtilis (strain 168)), P80244; purified B. subtilis ClpP, FRET peptide cleavage, 20 min; Potency, µM (titrated, usually from 57.5 µM), for inactives: at the top dose activity change, negative = active; active = well fitted falling curve with a large enough effect; inconclusive = small, poorly fitted or top-dose-only effect; inactive = no such curve, though single readings can be large or run the other way; note: potency is the fitted concentration of half-maximal effect; the source files actives as falling curves though it sought activators and does not explain the sign; nearly all actives have a fitted effect of over 65% in size; many hits overshoot -100%
Target sequence (P80244 whole entry, looked up): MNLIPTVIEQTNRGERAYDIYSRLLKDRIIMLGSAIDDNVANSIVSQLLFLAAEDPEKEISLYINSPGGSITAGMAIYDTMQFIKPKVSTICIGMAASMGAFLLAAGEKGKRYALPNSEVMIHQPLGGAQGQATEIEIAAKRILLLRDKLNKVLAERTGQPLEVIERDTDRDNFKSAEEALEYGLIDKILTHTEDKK
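ClpP 10 microg/mL final, pH 8 Tris/KCl buffer with BSA, glycerol, Tween-20; compound pinned in; FRET-FV substrate; RT 20 min; Ex320/Em430; ΔFRET vs ADEP 5.8 microM, DMSO, no enzyme.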
TRPML1 inh: qHTS for Inhibitors of the Human Mucolipin Transient Receptor Potential 1 (TRPML1) | TRPML1-inducible cells, Ca2+ dye fluorescence, FDSS; stronger effect = lower value; inhibition of EC80 agonist-evoked calcium signal | Mucolipin-1 (Homo sapiens), Q9GZU1 | 0.02% of 390,000 active | activity change, negative = inhibition, % (test concentration not listed); in the data active means activity change below about -50%; inconclusive means about -30% to -50%; inactive means above about -30%;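 note: stimulus is agonist 54-4 at its EC80 concentration; % is set by controls: 0 for no effect and ±100 for the full control effect; compound concentration not given in the record; the text of the record puts the active cut at -80%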
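Calcium fluorescence in TRPML1-DL cells induced overnight with Tet: a 110 s read after compound pin addition, then a 110 s antagonist read after challenge with 54-4 at 4 uM final (EC80).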
Menin MLL FP FL: qHTS Assay for Inhibitors Targeting the Menin-MLL Interaction in MLL Related Leukemias: Competition With Fluorescein Labeled MLL-derived Peptide. Fluorescence polarization, fluorescein-MLL peptide displacement from menin. FP activity change, % at 61.4 µM. 290,000 tested, under 10 active. AID 1766, 2009; inconclusive = falling polarisation curve, or a change in total fluorescence; inactive = total fluorescence flat and polarisation flat or rising; no compound was filed as active; the % refers to the polarisation; negative = inhibition;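 note: % of control where 0% means no effect; inhibitors lower the polarisation; unlabelled MLL peptide was the positive control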
gsp agonist: qHTS for Agonist of gsp, the Etiologic Mutation Responsible for Fibrous Dysplasia/McCune-Albright Syndrome: qHTS | Potency, µM (titrated, usually from 76.9 µM), inactives show at the highest dose activation (cAMP increase), actives largely listed as activators | 0.13% of 340,000 active | gsp mutant cells, cAMP HTRF, 30 min; control for the full effect not named in the record; active = well fitted activation curve with a large enough effect; inconclusive = small, poorly fitted or top-dose-only effect, or another doubt; inactive = no such curve, though single readings can be large or run the other way; cell line not stated here;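 note: phosphodiesterase inhibitor Ro 20-1724 added with compounds to block cAMP breakdown; potency is the fitted concentration of half-maximal effect; nearly all actives have a fitted effect of over 60% in size; about a fifth of the inactives were tested at one dose only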
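Cells in DMEM/10% FBS with G418 were pretreated with compounds in DMSO plus […] (300 uM stock) for 30 min at 37C. cAMP was measured by HTRF (cAMP-d2 plus anti-cAMP antibody-K) after 30 min at room temperature.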
* = called active by the depositor; ? = inconclusive; nt = not tested or not shown; & = joins results of further samples; [ ] = dose if it differs, or a comment. The order is random; overall some 2.1% were active at least once.

The first two entries (preview)
SMILES	TRPML1 agonist	gsp antagonist	ClpP mod	TRPML1 inh	Menin MLL FP FL	gsp agonist
CSc1ccc(C=O)cc1	-0.3	1%	0.8%	-1	nt	nt
CC(C)C(=O)N1CCN(c2ccc(NC(=O)c3ccc([N+](=O)[O-])o3)cc2Cl)CC1	1.2	?	nt	-4	1.8	1%[15.4 µM]

The list itself, from the start:
SMILES	TRPML1 agonist	gsp antagonist	ClpP mod	TRPML1 inh	Menin MLL FP FL	gsp agonist
CSc1ccc(C=O)cc1	-0.3	1%	0.8%	-1	nt	nt
CC(C)C(=O)N1CCN(c2ccc(NC(=O)c3ccc([N+](=O)[O-])o3)cc2Cl)CC1	1.2	?	nt	-4	1.8	1%[15.4 µM]
CCOc1ccc(S(=O)(=O)N2CCN=C2c2ccccc2)cc1	-0.1	18%	0.6%	35	nt	-22%[15.4 µM]
Cc1ccc2cccc(Oc3ncnc4sc(C)c(C)c34)c2n1	3.5	-8%	nt	10	1.0	-2%[15.4 µM]
O=C(NCc1ccco1)[C@@H]1CCCN1C(=O)c1cccs1	0.0	-6%	-2.2%	48	2.8	-17%
COc1ccc(Cl)c2sc(N3CCN(C(C)=O)CC3)nc12	0.0	?	0.3%	1	3.9	1%
COc1cccc(N2CC(NS(=O)(=O)c3cccs3)CC2=O)c1 (stereo not drawn)	-0.5	-2%	nt	4	nt	3%[15.4 µM]
O=C(c1cc(COc2c(F)cccc2F)on1)N(Cc1ccccc1)CC1CC1	1.2	-17%	nt	2	-0.1	21%
CCc1ccc(NC(=O)C(CC)n2c(=O)c(C(F)(F)F)nc3ccccc32)cc1 (stereo not drawn)	-1.0	nt	-5.5%	-14	nt	nt
CCOc1ccc(C2C(C#N)=C(N)Oc3nc[nH]c(=O)c32)cc1OC (stereo not drawn)	-0.2	14%	-1.8%	4	?	-6%
Cc1ccc(CNC(=O)CSc2nc3ccsc3c(=O)n2Cc2ccccn2)cc1	0.3	-1%	nt	-4	0.7	0%[15.4 µM]
CCCCCCn1nc(C(=O)N(CCOC)c2c(N)n(CCCC)c(=O)[nH]c2=O)c2ccccc2c1=O	1.6	6%	nt	-11	nt	9%[15.4 µM]
CC(C)Nc1nc(Cl)nc(NC2CCCCC2)n1	1.2	5%	0.9%	-17	0.2	9%
Cc1cc2cc3n(c2nn1)N=C(Cl)CC3	0.2	nt	4.2%	6	nt	33%
CCOC(=O)c1ccc(NC(=O)N2CCOc3ccccc32)cc1	-0.5	nt	-1.0%	4	nt	nt
C/C(=N\NS(=O)(=O)c1ccccc1)c1cccc(NC(=O)c2cccc(Cl)c2)c1	0.9	-19%	-0.3%	18	1.6	-22%
O=C(COC(=O)/C=C/c1ccccc1[N+](=O)[O-])Nc1ccc(S(=O)(=O)N2CCOCC2)cc1	0.0	-3%	0.8%	13	nt	3%[15.4 µM]
COc1ccc2c(c1)CCc1c(C(=O)N3CCCC3)noc1-2	1.9	?	-0.6%	30	4.3	?
CC(=O)Nc1ccc(NS(=O)(=O)c2ccc(-c3cnc(C4CC4)o3)cc2)cc1	-0.3	?	-4.1%	0	nt	-16%
Cc1cccc2nc(C(=O)Nc3cc(Cl)ccc3-n3cncn3)cn12	-1.4	-1%	-4.6%	58	nt	43%
CC(=O)N1CCN(C2=Nc3cccc4cccc2c34)CC1	0.8	-14%	-0.1%	11	?	-35%[inhibitor]
Cc1ccc(C)c(CNC(=O)c2sc3ncnc(N(C)C4CCCCC4)c3c2C)c1	3.3	nt	?	52	nt	nt
CCOC(=O)c1cc[nH]c1C	0.3	20%	-0.1%	-12	-0.1	19%
CCCCOc1ncnc2c1[nH]c1ccc(F)cc12	0.8	-28%	16µM*	5	1.1	12%
COc1ccc(C)cc1NC(=O)c1c2c(nc3ccccc13)C(=O)N(C1CCCCC1)C2	1.3	nt	-1.1%	-7	nt	nt
O=C(COc1ccc([N+](=O)[O-])cc1)NCc1ccncc1	0.9	-3%	nt	4	6.7	-2%[15.4 µM]
Cn1c(COc2ccccc2)nnc1SCC(=O)NNC(=O)C1CCCCC1	-0.5	-8%	1.4%	-3	-1.6	-8%[15.4 µM]
CC(=O)NCCn1c(SCC(=O)OCc2ccccc2)nc2ccccc2c1=O	-0.1	-9%	-0.4%	0	0.7	-23%
CC(C)C(=O)N(Cc1cc2ccccc2[nH]c1=O)C(C)C	1.1	10%	-17%	2	1.6	7%
CN1C(=O)N(CC(=O)Nc2nccs2)C(=O)C12CCCCC2	1.0	3%	-1.7%	7	nt	-44%
O=C(NCc1ccc(F)cc1)c1ccc(CS(=O)(=O)Cc2ccc(F)cc2)o1	-0.4	-4%	-0.2%	-3	7.2	-36%
CCCNC(=O)CCc1nnc2ccc(N3CCC(C)CC3)nn12	-1.1	9%	-5.7%	8	1.3	-5%[15.4 µM]
CC1CCCC(C)N1CCCNC(=O)c1ccc2c(c1)NC(=O)c1ccccc1S2 (stereo not drawn)	-0.3	12%	-1.1%	15	-3.5	-4%
Fc1cc(Cl)ccc1NC(=S)NCCN1CCOCC1	-0.7	12%	nt	-16	-0.9	28%
Cc1ccc(S(=O)(=O)/N=C(/NC(=S)Nc2c(C)n(C)n(-c3ccccc3)c2=O)c2ccccc2)cc1	0.1	6%	0.5%	4	-4.2	-6%
O=C(NCCc1ccc(Cl)cc1)c1ccc(S(=O)(=O)N2CCCC2)cc1	-0.5	-2%	-2.8%	6	nt	-9%
O=C(Nc1cc(C(=O)N2CCN(c3ccccc3)CC2)ccc1Cl)c1cccs1	4.0	2%	-4.5%	21	nt	-3%
Cc1csc(NC(=O)CSc2ccc3nnc(CCNS(=O)(=O)c4ccccc4)n3n2)n1	0.0	8%	-1.4%	-19	7.1	?
COc1cc2c(cc1OC)C(c1cc(Br)ccc1F)N(C(=O)CCl)CC2 (stereo not drawn)	-0.6	1%	1.6%	11	-13	39%
COc1ccc(NC(=S)Nc2ccccc2Cl)cn1	-0.7	0%	-6.4%	-7	-2.5	?
COc1cc(N(C)C)c([N+](=O)[O-])cc1C(=O)NC(C)CNc1ccc([N+](=O)[O-])cc1Cl (stereo not drawn)	0.2	?	0.6%	-8	3.2	-29%[15.4 µM]
COc1ccc(N2CCC(N3CCN(C)C(CCO)C3)CC2)cc1 (stereo not drawn)	-0.2	10%	-3.7%	-8	-2.6	-13%
Clc1ccc(Nc2ccc(NCc3ccccc3)nn2)cc1	29	-17%	-4.3%	-26	0.3	0%
COc1ccc(S(=O)(=O)Nc2ccc(S(=O)(=O)N3CCCCC3)cc2)cc1C	1.0	-7%	-1.4%	-8	1.6	8%
O=C(Oc1ccccc1C(=S)N1CCCCC1)c1cc([N+](=O)[O-])cc([N+](=O)[O-])c1	-0.9	-10%	1.9%	20	3.2	-4%
COc1ccc(N(CC(=O)Nc2ccc3c(c2)OCCO3)S(=O)(=O)c2cccc(C)c2)cc1	1.9	-13%	nt	5	nt	-6%[15.4 µM]
Cc1ccc(NC(=O)C(C)Sc2nnc(C)n2CC2CCCO2)cc1 (stereo not drawn)	0.9	0%	nt	1	-3.4	-2%
O=C(COc1ccccc1)Nc1nnc2n1CCS2	-0.5	nt	-0.5%	1	nt	nt
C=CCN(CC=C)C(=O)C1CC(=O)N(c2ccc(Br)cc2)C1 (stereo not drawn)	0.2	6%	-0.6%	5	1.0	-9%
NC(=O)C1CC(=O)N(c2ccc(OCc3ccc(Cl)cc3)cc2)C1 (stereo not drawn)	0.7	-5%	0.3%	-1	3.5	-4%
Cc1nnc(SCc2nnc(-c3cccs3)o2)s1	-1.1	3%	0.0%	0	0.7	3%[15.4 µM]
CCCCCCC(O)(c1ccccc1)C(CN1CCOCC1)c1ccccc1 (stereo not drawn)	nt	-4%	2.8%	nt	1.4	-41%[inhibitor]
COCCn1ccc2c(OCC(=O)Nc3c(C)cc(C)cc3C)cccc2c1=O	0.0	nt	-22%	19	nt	nt
COc1cccc(C2=NOC(C(=O)NC(C)C)C2)c1 (stereo not drawn)	-0.4	8%	-2.3%	-2	0.0	6%
CCC(c1nnnn1Cc1ccco1)N(Cc1ccccc1OC)Cc1cc2cc(C)ccc2[nH]c1=O (stereo not drawn)	1.7	-13%	-8.8%	28	7.4	-26%
COc1ccccc1C(CNC(=O)c1oc2ccccc2c1C)N1CCCC1 (stereo not drawn)	-0.3	4%	-8.1%	7	nt	-14%
Cc1cc(=O)n(C)c(=O)n1CCCCCCN1CCCC1	-0.6	2%	-2.0%	9	-1.4	7%
COCCN1C(=O)c2[nH]nc(-c3cc(C)ccc3O)c2C1c1ccc(C(C)C)cc1 (stereo not drawn)	2.0	nt	-4.0%	15	nt	nt
CCOc1ccc(N(CC(=O)NCCSc2ccccn2)S(=O)(=O)c2ccc(Cl)cc2)cc1	1.3	-5%	nt	4	-1.8	-4%
CC(=O)C1=NN(c2ccccc2)C2(S1)S/C(=C\c1ccccc1)C(=O)N2c1ccccc1 (stereo not drawn)	-1.2	-11%	2.3%	16	-1.3	19%

(list continues)
SMILES	TRPML1 agonist	gsp antagonist	ClpP mod	TRPML1 inh	Menin MLL FP FL	gsp agonist
Cc1ccc(Nc2nc(N)nc(CSc3ncccn3)n2)cc1	4.3	11%	0.8%	3	0.8	0%
CN(C)S(=O)(=O)c1cccc(NC(=O)CSc2nc3c(cc2C#N)C(=O)CC(C)(C)C3)c1	5.8	8%	-2.6%	66	3.9	28%
CC1CCN(S(=O)(=O)c2ccc3c(c2)CCN3C(=O)C2CCC2)CC1	0.4	10%	-0.1%	1	nt	-23%
N#C/C(=C1/CCCCCN1)c1nc2ccccc2[nH]1	-0.6	-4%	-3.1%	-16	1.6	12%
Cc1cc(SCc2ccc(Cl)c(Cl)c2)nc(=O)[nH]1	-0.4	1%	-0.2%	12	nt	?
CCN(Cc1ccccc1)C(=O)c1cc(S(=O)(=O)N2CCOCC2)ccc1N1CCCC1	-0.5	-1%	-2.9%	18	nt	?
CC1=C(/C=N/Nc2ccc([N+](=O)[O-])cc2[N+](=O)[O-])C(C)(C)CCC1	-0.3	-12%	-2.5%	18	2.0	-1%[15.4 µM]
CCN(CC)CCn1c(/N=C/c2cc(Br)ccc2O)nc2ccccc21	0.6	-3%	-6.9%	5	6.8	2%
C/C=C(\C)C(=O)OC1c2c(ccc3ccc(=O)oc23)OC(C)(C)C1OC(C)=O (stereo not drawn)	6.3	-4%	32µM*	9	2.9&2.9	15%
COc1ccc(S(=O)(=O)c2ccc(OC)c(OC)c2)cc1OC	-0.3	7%	32µM*	0	2.0	-14%
